VDR inh: vitamin D3 receptor (human) inhibition. P11473. VDR-SRC2-3 peptide fluorescence polarization, 2 h. Potency, µM, without a hit: max response, negative = inhibition, actives largely listed as inhibitors. hit rate 0.93% among 400,000. AID 504847; active = well fitted inhibition curve with a large enough effect; inconclusive = small, poorly fitted or top-dose-only effect, or another doubt; inactive = no such curve, though single readings can be large or run the other way; note: series mostly up to about 120 µM
Target sequence (P11473 whole entry, looked up): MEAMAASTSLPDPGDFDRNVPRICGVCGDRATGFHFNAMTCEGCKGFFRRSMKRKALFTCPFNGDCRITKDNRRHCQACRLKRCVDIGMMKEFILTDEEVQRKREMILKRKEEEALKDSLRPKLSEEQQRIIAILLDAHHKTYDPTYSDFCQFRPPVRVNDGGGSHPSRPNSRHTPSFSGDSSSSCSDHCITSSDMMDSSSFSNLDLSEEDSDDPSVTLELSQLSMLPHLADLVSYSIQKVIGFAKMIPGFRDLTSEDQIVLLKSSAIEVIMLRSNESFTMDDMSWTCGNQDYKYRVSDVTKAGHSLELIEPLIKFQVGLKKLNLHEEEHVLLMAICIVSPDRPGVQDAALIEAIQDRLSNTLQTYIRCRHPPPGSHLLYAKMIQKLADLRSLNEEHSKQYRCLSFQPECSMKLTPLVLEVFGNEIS
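Compounds are added to VDR with labelled SRC2-3 coactivator peptide and held 2 h at room temperature. Inhibition of the VDR–peptide interaction is then read as a change in fluorescence polarization.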
Starred values were filed as active, the others as inactive; u = inconclusive; & = joins results of further samples. % is set by controls: 0 for no effect and ±100 for the full control effect; potency is the fitted concentration of half-maximal effect.

compound	VDR inh
Cn1c(-c2ccc(F)cc2)cnc1SCC(=O)N1CCCCC1	-2%
Cc1ccc(OCCCCN2CCCC(C)C2)c([N+](=O)[O-])c1 (centres undefined)	1%
O=C(CSc1nc2ccccc2o1)N/N=C/c1ccco1	-9%
O=C(CCc1ccccc1)NC(=S)Nc1ccccc1[N+](=O)[O-]	-2%
Cc1cc(NC(=O)C(C)SCC(=O)Nc2cc(Cl)ccc2N2CCN(C)CC2)no1 (centres undefined)	-23%
CN1CCN(c2nc3ccccc3nc2C(C#N)C(=O)OC2CCCCC2)CC1 (centres undefined)	-23%
O=C(CSc1nnc(-c2ccncc2)n1Cc1ccco1)c1ccc(Cl)cc1	u
CSC1=NCCN1C(=O)c1c(-c2ccccc2Cl)noc1C	-18%

(cont.)
compound	VDR inh
CCN1CCN(c2nc(N)c([N+](=O)[O-])c(Nc3ccc(C)c(C)c3)n2)CC1	1%
COCCNC(=O)Cn1cc2c(n1)CCC(C)C2 (centres undefined)	-8%
O=C(c1ccc(Cl)c(S(=O)(=O)N2CCCCCC2)c1)N1CCN(c2ccccn2)CC1	-12%
Cc1ccccc1Cn1c(SCc2ccc(C(=O)NC(C)c3ccccc3)cc2)nc2ccncc21 (centres undefined)	17%
CC(CCc1ccccc1)NC(=O)COC(=O)c1ccc(S(C)(=O)=O)c([N+](=O)[O-])c1 (centres undefined)	u
CCC1CCCCN1C(=O)Cn1c(=O)n(CC2CCC(C(=O)NC)CC2)c(=O)c2sccc21 (centres undefined)	8%
COc1ccc(-c2cc(C)no2)cc1S(=O)(=O)N1CC(C)Oc2ccccc21 (centres undefined)	11%
CN(CCc1ccccc1)C(=O)c1cccc(NC(=O)Cc2cccc(NC(=O)C3CCN(C(=O)c4ccccc4)CC3)c2)c1	7%

Later entries:
compound	VDR inh
Oc1ccccc1N1CCN(C(=S)Nc2ccc(SC(F)F)cc2)CC1	5%
Cc1ccc(OCC(=O)n2nc(C)cc2C)c(C)c1	-7%
COc1ccc(C(=O)Nc2ccc(Cl)cc2C(=O)N2CCCC(C)C2)cc1OC (centres undefined)	-15%
COc1ccc(C2/C=C\CN(CC(C)C)C(C)C(=O)N2Cc2ccc(F)cc2)cc1 (centres undefined)	-22%
CCOCC(=O)Nc1nc(C)cc(C)n1	-15%
O=[N+]([O-])c1ccc(C2=NCCO2)cc1	-12%
CCN1CCN(C(=O)c2ccc3c(c2)N(Cc2cc(C)ccc2C)C(=O)c2ccccc2S3=O)CC1 (centres undefined)	-3%
Cc1cccc(C(=O)NC(=S)N2CCN(C)CC2)c1	1%

Remaining list, next part
compound	VDR inh
O=C(NC1CCCCC1)Oc1ccccc1	-9%
CSc1nc(-c2ccco2)nn1C(=O)c1ccccc1Cl	-18%
N/C(=N\OC(=O)c1ccccc1)C(Cc1ccccc1)C(=O)NOC(=O)c1ccccc1 (centres undefined)	0%
C[C@@H](CO)[C@H](/C=C/c1ccccc1)CCO[Si](c1ccccc1)(c1ccccc1)C(C)(C)C	-10%
Cc1nc(Cl)sc1C(=O)Nc1ccc(F)cc1	-3%
CCN(CC(=O)Nc1sc2c(c1C#N)CCC(C)C2)Cc1nc2ccccc2c(=O)[nH]1 (centres undefined)	-14%
Cc1cc(Cl)ccc1NC(=S)NCCCO	25%
COCCCNC(=O)CN1CCN(Cc2ccccc2Cl)C1=O	-2%

The list goes on:
compound	VDR inh
COc1cccc(C2/C(=C(/O)c3ccc4c(c3)OCO4)C(=O)C(=O)N2CCN2CCOCC2)c1 (centres undefined)	5%
CSc1nn(Cc2cccc(F)c2)c(N(C(C)=O)C(C)=O)c1S(=O)(=O)c1ccccc1	-14%
COCCN(CCOC)S(=O)(=O)c1ccc(C(=O)Nc2nnc(C3CC3)o2)cc1	7%
COc1cc(C(c2c(C)[nH][nH]c2=O)c2c(C)[nH][nH]c2=O)ccc1OS(=O)(=O)c1ccccc1	-25%
Cc1ccn2c(c1)nc(=S)n2C(=O)c1ccccc1	-5%
OCCCNCc1ccc(Cl)cc1Cl	9%
Cc1ccc(-c2cc(C(=O)OCn3nnc4ccccc4c3=O)c3ccccc3n2)cc1	9%
CC(C)(C)c1ccc(C(=O)N2CCC3(CC2)NCCc2[nH]cnc23)cc1	-4%

Three of the entries above in order of the VDR inh value, rising.
compound	VDR inh
CC(C)(C)c1ccc(C(=O)N2CCC3(CC2)NCCc2[nH]cnc23)cc1	-4%
COc1cccc(C2/C(=C(/O)c3ccc4c(c3)OCO4)C(=O)C(=O)N2CCN2CCOCC2)c1 (centres undefined)	5%
Cc1ccc(-c2cc(C(=O)OCn3nnc4ccccc4c3=O)c3ccccc3n2)cc1	9%

More entries follow:
compound	VDR inh
O=C(CN1CCN(c2ccc(O)cc2)CC1)NC(c1ccccc1)c1ccccc1	9%
CCOC(=O)c1c(NC(NC(C)=O)C(Cl)(Cl)Cl)sc(C(C)=O)c1C (centres undefined)	-1%
Cc1ccccc1/C=N\NC(=O)c1ccccc1-n1cccc1	-23%
COc1cccc(/C=C/C(=O)OCC(=O)c2cc(C)n(CC3CCCO3)c2C)c1OC (centres undefined)	-1%
COc1ccc(N2CCN(CC(=O)Nc3sccc3C#N)CC2)cc1	7%
c1cc(-c2nnc(-c3ccncc3)o2)ccn1	-9%
Cc1c(/C=N/NC(=O)CNc2ccccc2)c2ccccn2c1C(=O)c1ccncc1	11%
CCc1nc(SCC(=O)Nc2ccc(N(CC)CC)cc2)n[nH]1	7%

Continuation.
compound	VDR inh
O=C(Oc1ccc(C(=S)N2CCOCC2)cc1)c1ccc([N+](=O)[O-])cc1	-6%
CC(CCc1ccccc1)NC(=O)C1CCCN(c2nnc(-n3cccc3)s2)C1 (centres undefined)	-6%
COc1ccc(C=NCCC2(O)CC(C)N(C)CC2C)cc1 (centres undefined)	-7%
O=C(CCNC(=O)c1ccc([N+](=O)[O-])cc1)Nc1ccc(S(=O)(=O)N2CCOCC2)cc1	-12%
CCOc1ccc(-c2noc(CCC(=O)NCC3CCCO3)n2)cc1OC (centres undefined)	-8%
Cc1c(Nc2scc(-c3ccccc3)[n+]2-c2ccccc2)c(=O)n(-c2ccccc2)n1C	u
COc1cccc(CNC(=O)c2ccc3c(c2)nnn3C2CCCC2)c1	10%
CCN(CC(=O)NCc1cccs1)C(=O)/C=C/c1cccc(Br)c1	-11%

The results go on.
compound	VDR inh
CCOc1ccc(NC2C=CS(=O)(=O)C2)cc1 (centres undefined)	1%
N#Cc1ccccc1NC(=O)CNc1ccc(Cl)c(C(F)(F)F)c1	7%
CCc1ccc(NS(=O)(=O)c2ccc(OC)c3ncccc23)cc1	-11%
C=CCNC(=O)c1c(O)c2cccc3c2n(c1=O)CCC3	-20%
CCC(NC(=O)Nc1cccc(C)c1)c1c(-n2cccc2)sc2c1CCN(C)C2 (centres undefined)	20%
COc1cccc(-c2cc(C(=O)NCCN3CCOCC3)no2)c1	5%
COc1ccc(OCCC(=O)Nc2nccs2)cc1	3%
Cc1ccc(NC(=S)Nc2cccc3cnccc23)cc1	u

(list continues)
compound	VDR inh
O=C(OCC(=O)N1CCCC1)c1c(Cl)cccc1Cl	15%
COCCCNC(=S)N1CCN(c2nc(C)nc3sc4c(c23)CCCC4)CC1	-23%
Cc1c(C(=O)Nc2ccc(F)cc2)oc2ccc(S(=O)(=O)N3CC(C)CC(C)C3)cc12 (centres undefined)	9%
CCc1nc(SCC(=O)NCCc2ccccc2)n[nH]1	-13%
CC1CCC(NC(=O)c2ccc(COc3ccccc3)o2)CC1 (centres undefined)	13%
CCCCCCCCCCCCCCCC(=O)OCC(COC(=O)CCCCCCCCCCCCCCC)OC(=O)CCCCCCCCCCCCCCC	7%
CCOC(=O)CSc1nc2sc(C(=O)O)c(C)c2c(=O)[nH]1	-15%
CC1Cc2ccccc2N1C(=O)C1CCN(S(=O)(=O)Cc2ccccc2)CC1 (centres undefined)	-12%

(listing goes on)
compound	VDR inh
CC(=O)OC1OCCOC1NC(=S)Nc1ccc(C)cc1 (centres undefined)	9%
COc1ccc(Br)cc1C(=O)Nc1nnn(C)n1	-1%
S=C(Nc1ccccc1)N1CCN(C(=S)c2ccccc2)CC1	-9%
CCc1c(C)[nH]c2nc3ccccc3n2c1=O	-3%
CC1CCN(S(=O)(=O)c2ccc(NC(=O)CN3CCN(c4ccccc4)CC3)cc2)CC1	1%
CC(NCc1ccccc1Cl)C(=O)Nc1ccc(C#N)cc1 (centres undefined)	3%
O=C(NC(c1ccc(Cl)cc1)c1c(O)ccc2ccccc12)c1ccccc1 (centres undefined)	-6%
FC(F)(F)C(F)(F)c1nnc2ccc(-n3ccnc3)nn12	-11%

Entries listed so far that contain a furan ring, fused or not, in the order listed:
compound	VDR inh
O=C(CSc1nc2ccccc2o1)N/N=C/c1ccco1	-9%
O=C(CSc1nnc(-c2ccncc2)n1Cc1ccco1)c1ccc(Cl)cc1	u
CSc1nc(-c2ccco2)nn1C(=O)c1ccccc1Cl	-18%
Cc1c(C(=O)Nc2ccc(F)cc2)oc2ccc(S(=O)(=O)N3CC(C)CC(C)C3)cc12 (centres undefined)	9%
CC1CCC(NC(=O)c2ccc(COc3ccccc3)o2)CC1 (centres undefined)	13%

Next section
compound	VDR inh
COc1ccc(C(=O)c2sc3nc(C)cc(-c4cccs4)c3c2N)cc1	-2%
COc1cccc(NC(=O)CCS(=O)(=O)c2cc3c(cc2Cl)NC(=O)CO3)c1	1%
CCc1nc(N2CCCCC2C)c2oc3ccccc3c2n1 (centres undefined)	19%
CCCC(=O)NC(Nc1ccc(S(=O)(=O)Nc2ncccn2)cc1)(C(=O)OCC)C(F)(F)F (centres undefined)	6%
O=C(Nc1ccc(Cl)cc1)C1CCCCN1S(=O)(=O)c1ccccc1 (centres undefined)	-24%
CN(C)C1CCN(CCCOc2ccc(-c3ccc(C#N)cc3)cc2)C1 (centres undefined)	-15%&-12%
O=C(OCC(=O)N(Cc1ccccc1)Cc1ccccc1)c1ccccc1NCCO	-2%
Cc1c(CCO)c(=O)n2c([nH]c3ccccc32)c1C#N	8%

Further records
compound	VDR inh
CC12C(=O)N(c3nccs3)C(=O)C1(C)C1CCC2O1 (centres undefined)	-5%
CCOCCOCCC(C(=O)OCC)P(=O)(c1ccccc1)c1ccccc1 (centres undefined)	-12%
CCCN1CCN(C(=O)C(NC(=O)c2ccco2)C(C)C)CC1 (centres undefined)	2%
Cc1ccc(C)c(NC(=O)c2cc(-c3ccccc3)nn2-c2ccccc2)c1	-22%
CCN1C(=O)C(CC(=O)Nc2ccc(OC)cc2)N(CCc2ccc(OC)cc2)C1=S (centres undefined)	-5%
COc1ccc(NC(=O)c2sccc2C)cn1	-11%
O=C(CSc1nnc(NC2CCCCC2)s1)NN1C(=O)NC2(CCCCC2)C1=O	-10%
COCCCNc1oc(-c2cccs2)nc1S(=O)(=O)c1ccc(C)cc1	-4%

(continued)
compound	VDR inh
c1ccc(Cn2nnc3c(NCC4CCCO4)ncnc32)cc1 (centres undefined)	11%
CC(=O)c1cccc(NC(=O)C2CCCN(c3nnc(-n4cccc4)s3)C2)c1 (centres undefined)	6%
O=CNCC(=O)NCCc1ccc(Cl)cc1	21%
COc1ccc(C2=C(c3ccc([N+](=O)[O-])cc3)C(=O)OC2)cc1	-8%
Cc1ccc(Cl)cc1NC(=S)N(CCCN1CCN(C)CC1)Cc1cccs1	7%
CCc1ccccc1N(CC(=O)N1CCN(c2ccccc2)CC1)S(C)(=O)=O	-9%
CC(=O)c1cn(CC(=O)Nc2ccccc2F)c2ccccc12	8%
O=C(CCC(=O)Nc1ccccc1Cl)N/N=C/c1c[nH]c2ccccc12	1%

Continued:
compound	VDR inh
Cc1cc(-c2ccccc2)cc(=O)[nH]1	u
CCc1ccccc1NC(=O)CN(c1ccccc1OC)S(=O)(=O)c1ccc(C)cc1	7%
Cc1ccc(NC(=S)N2CCCCC2)cc1C	-1%
Cc1c(NC(=O)c2cc(=O)[nH]c3ccccc23)c(=O)n(-c2ccccc2)n1C	-5%
COC(=O)c1ccc(C(=O)NC2CC(C)(C)Cc3c2cnn3-c2ccc(F)cc2)nc1 (centres undefined)	-8%
COc1ccc(NC(=O)CSCC(=O)N(C)Cc2ccc(Cl)c(Cl)c2)cc1	-22%
O=C(CCc1ccccc1)N(Cc1cccnc1)c1nc2c(F)cc(F)cc2s1	9%
COc1ccc(N)c2c1C(=O)c1ccccc1C2=O	u

Later entries.
compound	VDR inh
CC1=C(C(=O)OCC2CCCO2)C(c2coc3ccc(Cl)cc3c2=O)C2=C(CCCC2=O)N1 (centres undefined)	-16%
CC(C)(C)SCCNC(=O)c1cccc([N+](=O)[O-])c1	-16%
O=C(Nc1cccc(S(=O)(=O)NC2=NCCC2)c1)c1cc(=O)[nH]c2ccccc12	10%
CC(=O)N(C(C)=O)n1c(C)nc2sc3c(c2c1=O)CCCC3	u
O=C(CN1c2cccc3cccc(c23)S1(=O)=O)Nc1c(F)c(F)c(F)c(F)c1F	23%
O=C(c1cccc(Cl)c1)N1CCN(CCCc2ccccc2)CC1	-5%
CCn1ncc2c1C(=O)NC1c3ccccc3C(=O)N21 (centres undefined)	-11%
CCCC(=O)Nc1ccc(Oc2ccc(NC(=O)CCC)cc2)cc1	3%
O=c1c2cn(Cc3ccc(F)cc3)c3ccc(F)cc3c-2nn1Cc1ccc(F)cc1	0%
Cc1ccccc1Oc1nc2c(C)cccn2c(=O)c1/C=C(\C#N)C(=O)Nc1c(C)n(C)n(-c2ccccc2)c1=O	50µM*
Cc1cc(SCC(=O)Nc2c(C)n(C)n(-c3ccccc3)c2=O)nc2ccccc12	8%

Sorted by molecular weight (high to low): three of the compounds above.
compound	VDR inh
CN(CCc1ccccc1)C(=O)c1cccc(NC(=O)Cc2cccc(NC(=O)C3CCN(C(=O)c4ccccc4)CC3)c2)c1	7%
O=C(c1ccc(Cl)c(S(=O)(=O)N2CCCCCC2)c1)N1CCN(c2ccccn2)CC1	-12%
CCOc1ccc(NC2C=CS(=O)(=O)C2)cc1 (centres undefined)	1%

Screens as filed in PubChem BioAssay.

A portion of the library; the hit share may differ from the screen's.
